Screens as filed in PubChem.
Beta apoptosis = blocks beta cell apoptosis; protection from apoptosis, % (no concentration beside the values); 300,000 compounds, 0.8% hits; AID 435005; INS-1E cytokine-induced death, ATP luminescence, 48 h; percent of positive-control rescue, neutral wells zero;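 active = all replicates at 75% or more, or half of them and the mean; inconclusive = half reach 75% but not the mean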;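 also: 0% = cytokine-treated negative control wells and 100% = positive control rescue; higher means more ATP so stronger rescue from cytokine killing; wells of about 40 µL received 100 nL stock; the first replicate is given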
B2AR ag = agonists of human beta-2 adrenergic receptor inducing internalization; Am2.2-beta2AR cells, FAP receptor internalization, flow cytometry; reference of the scale not given here; response, % (test concentration not listed); 340,000 compounds, 0.43% hits; AID 504454;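 active = response above a set limit, near 3 SD of response in nonfluorescent compounds, cut at about 42% in these data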;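 also: stock transfer was 100 nL into about 11 µL; a reference agonist was the positive control; negative values mostly stem from fluorescent compounds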
Calb FLC = affects C. albicans growth with fluconazole; C. albicans CaCi-2 (fluconazole-resistant clinical isolate) + fluconazole, Alamar Blue growth, 48 h; growth inhibition, % (test concentration not listed); 300,000 compounds, 0.57% hits; AID 1979;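 active = most replicates above 75%; inconclusive = exactly half above 75%; inactive = most below 75%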;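 also: all wells also contain fluconazole at 8 µg/ml as a sub-toxic cotreatment; 0% = median of DMSO wells and 100% = median of geldanamycin control wells; wells of about 8 µL received 7.5 nL stock; the first replicate is given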
RanGTP-Imp inh = disruptors of Ran-importin-beta complex formation – biochemical, FRET, CFP-Ran, YFP-importin-beta, homogeneous, primary screen; inhibition, % (test concentration not listed); AID 2216; 300,000 compounds, 1.1% hits; cell-free CFP-Ran/YFP-importin-beta FRET ratio;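 active = most replicates above 15%; inconclusive = exactly half above 15%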;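 also: 0% = DMSO wells and 100% = Ran loaded with GDP instead of GTP; wells of about 40 µL received 100 nL stock; the first replicate is given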
UCH37 inh = blocks the human deubiquitinase UCH37 | purified proteasome/UCH37, Ub-AMC cleavage fluorescence | inhibition, % (test concentration not listed) | 330,000 compounds, 0.33% hits | AID 588478;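 active = mean of two replicates above 20%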;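 also: 0% = compound-free wells with enzyme and 100% = wells lacking proteasome; stock transfer was 100 nL into about 20 µL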
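Material: Human UCH37 enzyme supplied as purified proteasome complex | Schedule: 30 min compound-proteasome preincubation then 25 min substrate reaction, room temperature | Detection: AMC fluorescence from Ub-AMC cleavage, excitation 355 nm, emission 460 nm | Benchmarks: Wells without proteasome as full block, compound-free enzyme plus substrate as uninhibited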
T cruzi repl = blocks replication of Trypanosoma cruzi; 300,000 compounds, 1.4% hits; T. cruzi beta-gal in NIH3T3, luminescence, 90 h; inhibition, % (no concentration beside the values);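 active = mean inhibition across valid replicates above about 55%, limit read from the data; inconclusive = mean below that limit but half or more replicates reach it; inactive = mean below it, under half of replicates reach it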;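 also: signal also drops with host cell toxicity which is not excluded here; 0% = plate median of DMSO wells and 100% = zero luminescence signal; higher percent means less beta-gal luminescence so fewer parasites; stock transfer was 50 nL into about 50 µL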
LANA-H2B inh = blocks KSHV LANA binding to histone H2A/H2B; cell-free LANA-H2A/H2B peptide, fluorescence polarization; Q9QR71; inhibition, % (concentration not given with the values); 320,000 compounds, 0.6% hits; in the data active = inhibition mostly above about 10%, no sharp cut-off; inactive = mostly below about 6.7%;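 also: stock transfer was 7.5 nL into about 10 µL; 0% = median of vehicle wells and 100% = median of positive control wells; one replicate is shown; the record names a cut of 25% in any replicate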
Target sequence (Q9QR71 whole entry, looked up): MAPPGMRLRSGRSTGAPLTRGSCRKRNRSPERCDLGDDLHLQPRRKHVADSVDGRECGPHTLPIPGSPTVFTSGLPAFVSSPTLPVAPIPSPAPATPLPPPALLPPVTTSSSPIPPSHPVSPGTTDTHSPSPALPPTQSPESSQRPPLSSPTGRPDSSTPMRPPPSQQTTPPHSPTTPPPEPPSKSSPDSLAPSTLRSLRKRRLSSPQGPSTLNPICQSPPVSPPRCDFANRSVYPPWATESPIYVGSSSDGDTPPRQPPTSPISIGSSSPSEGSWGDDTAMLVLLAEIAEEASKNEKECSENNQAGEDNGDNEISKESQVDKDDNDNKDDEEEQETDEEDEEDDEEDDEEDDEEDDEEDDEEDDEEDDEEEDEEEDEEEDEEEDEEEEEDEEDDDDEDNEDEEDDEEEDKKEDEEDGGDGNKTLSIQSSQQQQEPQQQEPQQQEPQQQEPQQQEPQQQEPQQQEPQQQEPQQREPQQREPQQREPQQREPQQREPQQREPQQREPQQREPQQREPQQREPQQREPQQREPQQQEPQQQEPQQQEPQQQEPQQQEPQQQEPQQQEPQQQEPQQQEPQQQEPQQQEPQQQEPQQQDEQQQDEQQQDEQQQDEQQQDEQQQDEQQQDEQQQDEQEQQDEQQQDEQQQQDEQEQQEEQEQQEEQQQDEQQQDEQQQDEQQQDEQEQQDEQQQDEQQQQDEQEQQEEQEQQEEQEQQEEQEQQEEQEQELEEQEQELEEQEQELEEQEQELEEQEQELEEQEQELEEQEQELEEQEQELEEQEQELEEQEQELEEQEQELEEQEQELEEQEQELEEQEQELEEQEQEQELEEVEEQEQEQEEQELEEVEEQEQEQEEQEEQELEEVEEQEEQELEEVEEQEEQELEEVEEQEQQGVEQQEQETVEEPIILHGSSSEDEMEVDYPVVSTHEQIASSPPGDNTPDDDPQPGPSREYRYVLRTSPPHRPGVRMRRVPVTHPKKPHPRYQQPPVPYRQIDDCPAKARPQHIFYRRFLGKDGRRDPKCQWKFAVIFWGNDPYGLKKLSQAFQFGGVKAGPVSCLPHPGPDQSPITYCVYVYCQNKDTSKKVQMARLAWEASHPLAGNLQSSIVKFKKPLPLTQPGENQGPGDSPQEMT
Bfl-1 A1 inh = inhibitors of the anti-apoptotic protein A1, read as caspase activation. MEF A1-2A-BIM cells, Caspase-Glo 3/7 luminescence, 3 h; percent of clofoctol response, vehicle zero. caspase activation, % (no concentration beside the values). 330,000 compounds, 0.066% hits;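 active = over half of replicate activation scores above 10%, or exactly half above 10 with the replicate mean above 10; inconclusive = replicate mean below 10 yet half the replicates above 10; inactive = over half of replicates below 10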;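 also: wells of about 30 µL received 50 nL stock; many hits fall short of the cut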
* hit, by the source's call; u = inconclusive; x = not tested or not shown; & = joins results of further samples.

SMILES	Beta apoptosis	B2AR ag	Calb FLC	RanGTP-Imp inh	UCH37 inh	T cruzi repl	LANA-H2B inh	Bfl-1 A1 inh
O=C(NC1(C(F)(F)F)C(=O)Nc2c1c(=O)[nH]c(=O)n2-c1ccccc1)c1ccncc1 (stereo not given)	-3	0	-12	3.2	6.6	-8	3.2	0.5
Cc1ccc(NC(=O)Nc2ccc3c(c2)CCC3)cc1	4	-1	2	2.2	-1.0	1	-1.4	-0.9
O=C(OCC(O)COC(=O)c1cccnc1)c1cccnc1	-2	-1	1	8.8	0.0	-1	-4.0	0.9
C=CCn1c(N2CCCCCC2)nc2c1c(=O)n(C)c(=O)n2C	-4	-18	0	-1.4	0.3	-6	-4.7	0.6
COC(=O)c1ccc(CNC(=O)COC(=O)COc2ccc(OC)cc2)cc1	-2	3	19	7.6	3.6	-17	0.6	-0.6
Cc1nc(SCC(N)=O)c([N+](=O)[O-])[nH]1	-3	4	19	1.7	7.2	-17	3.6	-0.4
CN1CCN(C(=O)c2cc3c(C(F)(F)F)nn(C)c3s2)CC1	-5	1	0	-2.7	0.2	13	17*	0.1
CCCN(C(=O)CSc1nnnn1-c1ccccc1OC)C1CCS(=O)(=O)C1 (stereo not given)	-6	0	-12	1.2	0.6	7	-4.5	0.3
CN(C)CCC(c1ccccc1)c1ccccn1 (stereo not given)	-3&-11	-4&-5&-9	x	0.5	-0.7&-2.7	-16	-0.2&-1.0	-0.3&-0.6
COc1ccc(OC)c(NC(=O)CSc2nnc3ccc(-c4ccncc4)nn23)c1	3	9	10	-0.8	-1.0	2	0.4	-0.1
O=C(O)c1cc(-c2ccccn2)n[nH]1	1	9	12	-0.2	0.0	3	0.5	0.6
C1=C(c2sc3ccccc3c2-c2ccc(OCCN3CCOCC3)cc2)CCCC1	2	5	x	x	x	x	4.4	0.1
Cc1ccc(S(=O)(=O)N(C)c2ccc(C(=O)Nc3ccc(C)cn3)cc2)cc1	x	9	9	4.3	0.0	14	5.9	1.1
COc1cc2cc(CCCO)oc(=O)c2cc1OC	-7	-6	x	x	3.0	x	-3.6	-0.2
CN(C)c1ccc(C2OC(=O)C3(CCCC3)C(=O)C2(C)C)cc1 (stereo not given)	-4	4	-26	1.6	1.4	15	1.6	-0.2

Records above that bear a hit mark in LANA-H2B inh:
mol | B2AR ag | RanGTP-Imp inh | UCH37 inh | LANA-H2B inh
CN1CCN(C(=O)c2cc3c(C(F)(F)F)nn(C)c3s2)CC1 | 1 | -2.7 | 0.2 | 17*

Next entries follow:
SMILES	Beta apoptosis	B2AR ag	Calb FLC	RanGTP-Imp inh	UCH37 inh	T cruzi repl	LANA-H2B inh	Bfl-1 A1 inh
Cc1ccc(NC(=S)NNC(=O)CCn2cc(C)cn2)cc1	3	-1	-6	1.9	-0.4	-3	-1.7	-1.0
O=C(CSC1CS(=O)(=O)c2cc([N+](=O)[O-])ccc21)NNC(=O)c1ccccc1 (stereo not given)	-5	-9	-2	18*	5.0	0	0.3	-0.1
O=[N+]([O-])c1cc(/C=N/O)ccc1SCc1ccccc1Cl	6	19	34	u	x	16	5.6	-0.1
COc1cc(/C=N\NS(=O)(=O)c2ccccc2)cc(OC)c1OC	-7	-9	-10	4.5	x	-12	-3.9	0.6
O=[N+]([O-])c1ccccc1S(=O)(=O)NCc1ccco1	x	-3	10	-4.2	0.7	0	-3.3	0.3
NC(=O)c1sc2nc3c(c(-c4cccs4)c2c1N)CCCCC3	-32	1	2	-2.9	-60	19	6.5	-0.9
CSc1ccccc1NC(=O)CSc1nnc(COc2ccccc2)o1	0	-4	6	3.9	5.8	-5	0.5	-0.2
COc1ccc(CCNC(=O)C2CCN(S(=O)(=O)c3ccc4c(c3)oc(=O)n4C)CC2)cc1OC	3	-9	-10	3.0	-0.6	-22	-4.6	1.9
O=C(NCC1CCCO1)c1cccc(S(=O)(=O)Nc2cccc(C(F)(F)F)c2)c1 (stereo not given)	-2	-5	x	x	1.6	x	2.7	-0.4
Cc1ccc(-c2nnn(CC(=O)N(c3ccccc3)C(C(=O)NC3CCCC3)c3ccncc3)n2)o1 (stereo not given)	-10	-2	2	1.9	3.6	-1	6.8	-0.6
Cc1ccc(C2c3c(oc4cc(C)c(C)cc4c3=O)C(=O)N2CCCN2CCOCC2)cc1 (stereo not given)	-3	5	9	1.8	4.3	18	1.7	-0.4
Cc1nn(CC(=O)Nc2ccccc2C(F)(F)F)c(=O)c2cccn12	x	-1	16	3.6	1.0	0	-0.9	0.8
O=C(NCc1cccnc1)C1CCN(S(=O)(=O)c2cccnc2)CC1	-2	9	-7	1.8	4.2	-27	0.6	0.1
Cc1ccc(N2C(=O)[C@@H]3[C@H](C2=O)[C@H]2C=CC=NN2[C@@H]3C(=O)Nc2ccccc2)cc1	x	-4	-3	-0.4	6.7	2	-3.3	u
COc1ccccc1CN(C)C(=O)c1cnc(C)cn1	x	-3	8	-2.3	4.2	-11	-0.3	0.4
CCOc1ccc2ccccc2c1/C=N/NC(=O)c1ccc(C)nc1	x	-1	8	1.6	x	-8	-5.3	0.3
COc1ccc(S(=O)(=O)NN(C)C)cc1N(C)S(=O)(=O)c1ccc(Cl)cc1	-10	-4	12	-0.3	1.6	-6	-2.3	0.2
O=C(O)c1cccc(NS(=O)(=O)c2ccc3c(c2)C(=O)c2ccccc2C3=O)c1	-3	10	-10	1.2	9.5	8	-8.6	0.2
OC(CNCC1CCCO1)COc1ccc(OCC(O)CNCC2CCCO2)cc1 (stereo not given)	-1	1	-2	1.3	3.8	-11	-11	0.0
CC(=O)NC(Cc1ccccc1)C(=O)NC(Cc1ccccc1)C(=O)O (stereo not given)	-7	-7	-9	u	2.2	0	-1.7	0.2
CCOC(=O)C1(Cc2cccc(OC)c2)CCN(Cc2ccc(OC)c(OC)c2)CC1	x	3	-21	-3.8	4.8	11	-2.9	1.4
O=C(Cc1ccc(F)cc1)Nc1nnc(SCC(=O)N2CCCCC2)s1	-11	-23	-2	-0.9	x	-2	1.4	-0.2
Cc1ccc(C(=O)Nc2ccc3nccnc3c2)cc1	3	-1	0	1.5	-239	-1	-2.2	-8.0
CCOC(=O)c1cc(/C(C)=N/OC(=O)c2ccc(Cl)cc2)on1	x	3	16	4.2	x	x	-0.4	0.9
CCOc1cccc(N(C(=O)Cc2cccs2)C(C(=O)NC2CCCCC2)c2cccn2C)c1 (stereo not given)	-3	2	4	-5.9	1.1	38	2.8	-1.1
CC(=O)OCC1=C(C(=O)O)N2C(=O)C(NC(=O)c3ccc(COc4ccc(Cl)cc4)o3)C2SC1 (stereo not given)	-4	1	1	-1.2	2.5	-13	-0.4	-1.0
CCOC(=O)N1CCN(C(=O)CSc2nc3c([nH]c4ccccc43)c(=O)n2CC)CC1	-1	16	3	0.7	-2.9	2	-8.3	0.9
O=C(CNC(=O)c1ccc(Cl)cc1Cl)OCC(=O)N1CCCC1=O	-3	1	-1	x	3.3	-19	2.6	2.3
O=C(Cc1ccc(Cl)cc1)NCCS(=O)c1ccc(Cl)cc1 (stereo not given)	3	17	9	1.9	0.4	-13	3.5	-0.7
Cc1ccc(N(Cc2ccccc2O)C(=O)c2ccccc2F)cc1	x	6	-3	0.4	0.8	14	-2.4	0.6
CCOc1ccc(OCC)c(NC(=O)CN2CCC(NC(=O)c3cccc(F)c3)CC2)c1	5	23	-18	10	0.9	29	2.0	0.7
O=C(Nc1ccc(C(=O)N2CCOCC2)cc1)Nc1cccc(C(F)(F)F)c1	-14	9	8	-2.4	1.4	7	-0.4	-0.6
CCN1CCCC1CNS(=O)(=O)c1c(C)cc(C)cc1C (stereo not given)	-4	5	1	4.6	6.3	-16	-1.6	-0.6
CCOC(=O)c1sc(NS(=O)(=O)c2ccc(C)cc2)nc1C	3	6	32	4.7	6.2	-1	2.8	-0.9
Cc1ccc(-n2c3c(cc(C(=O)NC4CCSC4=O)c2=O)C(=O)CC(C)(C)C3)cc1 (stereo not given)	-2	-5	12	-4.3	-9.2	-19	2.6	0.1
O=C(CSc1nnc(Cc2ccccc2)o1)N1CCCc2ccccc21	2	5	-6	-1.4	1.4	2	-7.1	0.1
COc1ccc(CNC(=O)CNC(=O)c2ccc(Br)o2)cc1OC	-6	2	15	2.0	0.3	-3	-27	1.0
CCc1noc(C)c1C(=O)N1CCN(S(=O)(=O)c2c(C)c(C)cc(C)c2C)CC1	0	-7	4	3.4	x	19	2.2	0.9
C=CCNC(=O)C1CC(=O)N(c2ccc(OCC(=O)Nc3ccc(CC)cc3)cc2)C1 (stereo not given)	-5	-6	-10	1.8	-2.5	-23	-17	0.2
O=c1c2ccccc2nnn1CSc1nnc(COc2ccc(Cl)cc2)n1Cc1ccco1	x	-5	3	-2.1	2.6	31	1.5	0.1
CC(=Nc1ccccc1C(F)(F)F)c1ccncc1	-9	-26	8	0.4	1.0	-13	-0.4	-0.2
COc1ccc(S(=O)(=O)NCC2CCCN(C(=O)c3ccccc3)C2)cc1 (stereo not given)	-2	-2	1	2.7	3.6	-14	2.0	-0.5
CCC(CC)C(=O)N1CC(=O)Nc2ccc(Br)cc2C1c1ccccc1 (stereo not given)	-6	14	-4	-0.3	7.3	10	-1.1	0.2
CN(C)c1ccc(/C=N/NC(=O)c2ccn(C)n2)cc1	-2	-5	-5	1.9	x	-20	-4.7	-3.2
Cc1ccccc1C1CC(=O)NC2=C1C(=O)CCC2 (stereo not given)	-6	0	-2	6.8	-10	-7	-5.6	0.9
Cc1csc(NC(=O)CSc2ncc(-c3ccccc3)[nH]2)n1	-2	2	13	-2.3	2.9	-15	2.9	0.3
N#Cc1c(N)nc2c(c1N)CC(CCl)O2 (stereo not given)	-2	4	-2	3.3	-14	-24	0.8	-1.2
COc1ccc(CCNC(=O)c2cc(S(=O)(=O)N3CCOCC3)ccc2N2CCCC2)cc1OC	-13	1	-2	1.2	2.5	5	-2.0	0.2
CC1CCN(C(=O)CSc2nnc(CNC(=O)c3ccc(S(=O)(=O)N(C)C)cc3)o2)CC1	-6	4	-1	-0.6	-0.8	6	-3.0	0.5
COc1ccccc1NCc1ccc([N+](=O)[O-])s1	6	5	1	-2.4	3.2	20	9.5	3.2
CCOc1ccc(C(C)=O)cc1COc1cccnc1[N+](=O)[O-]	-6	-30	5	1.0	4.4	-1	2.2	-1.2
COc1cc(OC)cc(C(=O)N[C@H](C(=O)OCC(=O)Nc2ccc(C)cc2C)C(C)C)c1	-7	-2	-4	-2.7	1.7	4	-3.9	3.0
COC(=O)[C@H](Cc1ccccc1)NC(=O)NCc1cccs1	-12	7	31	7.6	4.4	-2	-1.9	0.5
CCCCC(=O)Nc1cc([N+](=O)[O-])ccc1Cl	-1	7	-8	u	0.3	-13	-0.5	-0.4
CC(C)(C)C(=O)COC(=O)C1CC(=O)N(c2ccccc2)C1 (stereo not given)	-3	0	-4	-0.7	3.7	-2	0.3	-0.9
CN(CCC#N)S(=O)(=O)c1ccc2[nH]cc(C(=O)NCCc3ccccc3)c(=O)c2c1	5	1	6	-0.3	-11	2	6.1	0.5
COc1c(C)cccc1C(=O)NC(=S)Nc1ccccc1N1CCCC1	8	-1	7	-0.8	10	2	-1.3	0.2
